Compound activity (PubChem)
HIV TAR-Tat: HIV-1 TAR-Tat binding disruption; 100,000 compounds, 0.6% hits; HIV-1 TAR RNA, Tat peptide displacement FRET; stronger effect = higher value; z-score (no concentration beside the values);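 further: score is relative to mean and SD of negative controls; some compounds called inactive have numbers as strong as hits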
CDC25B-CDK2 inh: human CDC25B-CDK2/CyclinA binding inhibition; HTRF CDC25B-CDK2/CyclinA binding, anti-His/anti-Flag; stronger effect = higher value; z-score (no concentration beside the values); 94,000 compounds, 0.72% hits; AID 1259370;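 further: score is relative to mean and SD of negative controls; strong numbers were not always called active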
* hit, by the source's call; . = no result given.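 How the source made its calls: active means z-score from 3 up in half or more of its runs; inactive means the rest.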

SMILES	HIV TAR-Tat	CDC25B-CDK2 inh
COc1cc2[nH]c(=O)n(CC3CCCO3)c(=O)c2cc1OC (stereo unspecified)	0.14	-0.72
COCCNc1nc(N)c([N+](=O)[O-])c(N2CC(C)CC(C)C2)n1 (stereo unspecified)	1	.
CCOC(=O)N1CCC(Nc2c(N3CCCCC3)c(=O)c2=O)CC1	1.1	0.5
CC(=O)N1c2ccc(S(=O)(=O)NC(C(=O)Nc3ccc(Cl)cc3)C(C)C)cc2CC1C (stereo unspecified)	-0.48	.
CC(C)Cn1cnc2c(oc3nc4c(cc32)COC(C)(C)C4)c1=O	1.6	.
CCOC(=O)C1=C(C)NC2=C(C(=O)C(C(=O)OC)C(C)C2)C1c1ccc(O)cc1 (stereo unspecified)	-0.83	-1.6
O=C(C1CCCCC1)N1CCN(Cc2ccccc2)CC1	.	-1.4
CSc1sc(SC)c(C[n+]2ccccc2)c1C[n+]1ccccc1	.	-1.2
O=C(NC(=S)NNc1ncccc1-n1cccc1)c1ccccc1	.	0.4
CC1CCCC(C)N1CCCNC(=O)CCCn1c(=O)c2cccn2c2cccnc21 (stereo unspecified)	-3	.
CCc1cc2c(N3CCC(C(=O)NC4CC4)CC3)ncnc2s1	0.68	.
O=C(NCCc1csc2c1CCCC2)Nc1ccc(Br)cc1F	-0.08	.
Cc1cc2c(cc1CNC(=O)Cn1cc(C(=O)C(C)(C)C)c3ccccc31)OCCCO2	1.2	.
Cn1c(C(=O)NCCN2CCOCC2)cc2c(=O)[nH]c3ccccc3c21	.	-0.16
Cc1cccc(-c2nc(C)c(CCNS(=O)(=O)c3ccc(C)c(C)c3)s2)c1	2	.
CCOc1ccc(Nc2cc(C)c3ccc(O)cc3n2)cc1	1.8	-1
O=S(=O)(c1ccc2nc(NC3CCCCC3)ccc2c1)N1CCCCC1	0.58	.
COC(=O)c1sccc1-c1ccc(/C(C)=N/NC(N)=O)o1	.	2.9
CCn1cc2nc(SCc3ccccc3)n(CCc3ccccc3)c(=O)c2n1	-0.52	.
C=CCN1C(=O)C(O)(CC(=O)c2ccc(OC)c(OC)c2)c2cc(Br)ccc21 (stereo unspecified)	.	-2.7
CC1=C(C#N)C(c2ccccc2C(F)(F)F)C2=C(CCCC2=O)N1 (stereo unspecified)	.	-0.25
CCN(CC)CCn1c(C)c(C)c2c1ncn1nc(-c3ccc(C)cc3)nc21	0.67	-1.6
CCOC(=O)CSc1nnc2n(-c3ccccc3)c(=O)c3c4c(sc3n12)COC(C(C)C)C4 (stereo unspecified)	2.7	1.3
COc1ccc(C2OCCCO2)c(Cl)c1OC	.	-2.7
Fc1cc(F)cc(-c2noc3ncnc(NC4CCCCC4)c23)c1	1.1	.

Compounds listed so far with an aryl methoxy group (three):
SMILES	HIV TAR-Tat	CDC25B-CDK2 inh
COc1cc2[nH]c(=O)n(CC3CCCO3)c(=O)c2cc1OC (stereo unspecified)	0.14	-0.72
C=CCN1C(=O)C(O)(CC(=O)c2ccc(OC)c(OC)c2)c2cc(Br)ccc21 (stereo unspecified)	.	-2.7
COc1ccc(C2OCCCO2)c(Cl)c1OC	.	-2.7

Next records follow.
SMILES	HIV TAR-Tat	CDC25B-CDK2 inh
Cc1ccc(C(=O)Nc2nc(-c3ccc(C#N)cc3)cs2)cc1	.	-0.82
O=C(Oc1cccc(-n2cnnn2)c1)C(c1ccccc1)c1ccccc1	0	-0.08
O=C(CCc1nnc2ccc(NCc3ccccc3Cl)nn12)NCc1ccc2c(c1)OCO2	-0.42	.
CCS(=O)(=O)N1CCCc2ccc(NS(=O)(=O)c3cc(C)c(C)cc3OC)cc21	-1.6	.
CC1(C)CC(NC(=O)c2ccc3c(c2)OCO3)CC(C)(C)N1	0.27	0.35
COc1ccc(/C(O)=C2\C(=O)C(=O)N(CCCn3ccnc3)C2c2ccc(F)cc2)cc1 (stereo unspecified)	0.02	-1.4
Cc1cc(N2S(=O)(=O)c3ccccc3S2(=O)=O)ccc1Br	.	1.1
COc1ccccc1Oc1coc2cc(O)ccc2c1=O	0.12	-1.8
O=c1ccc(-c2ccc(S(=O)(=O)Nc3ccccc3)o2)n[nH]1	2.1	.
Cc1nc(-c2ccc(C)c(S(=O)(=O)NCCc3ccccc3)c2)cs1	0.82	.
C=CCN(CC=C)C(=S)NC(=O)c1ccccc1	.	-2.3
CN(C)/C=C/C=C1\CCCC1=O	.	0.49
O=c1cc(CO)oc(C(Nc2ccccn2)c2cccc(F)c2)c1O (stereo unspecified)	.	0.86
COCC(C)NC(=O)NC1(C(F)(F)F)Oc2ccc(Cl)cc2O1 (stereo unspecified)	.	-0.69
CN(C)c1ccc(C(CNC(=O)NC2CCCCC2)N2CCc3ccccc32)cc1 (stereo unspecified)	-1.1	.
CCCC(=O)N1c2nc(-c3ccco3)nn2C2(CCCCC2)[C@@H]2CCCC[C@@H]21	0.56	-1.8
COc1cccc(Nc2nc(N3CCN(c4ccccc4OC)CC3)nc3c2cnn3C)c1	1.3	.
Cc1ncc(-c2ccc(C)c(S(=O)(=O)N3CCc4ccccc43)c2)o1	1.7	.
Cc1ccc(C2=NS(=O)(=O)N(C)C(C(=O)N(C)C3CCCCC3)=C2)cc1	1.1	-1.7
CC(C)OC(=O)CSc1nc2c(c(C3CC=CCC3)c1C#N)CCC2 (stereo unspecified)	.	-0.98
Cc1cccc(OCc2nnc(SCC(=O)Nc3nccs3)o2)c1	.	0.47
Cc1nc2scc(C)n2c(=O)c1S(=O)(=O)N1CCN(c2ccccn2)CC1	0.11	-1.8
O=C(CSc1ccsc1[N+](=O)[O-])N1CCCC1	-0.5	-2.1
Cc1cccn2c(=O)c3cc(C(=O)Nc4ccccc4)sc3nc12	.	-0.84
COC(=O)c1cc(S(=O)(=O)NCCN(Cc2ccco2)C(C)(C)C)c[nH]1	1.9	.
Next part
SMILES	HIV TAR-Tat	CDC25B-CDK2 inh
CC(=O)Nc1c2n(c3ccc(F)cc13)CC(C)(C(=O)NC1CCC(C)CC1)N(CC1CCCO1)C2=O (stereo unspecified)	1.2	.
COc1ccc(OC)c(NC(=O)c2ccc(SC)s2)c1	.	-0.74
Cc1ncc(CO)c(CNc2ccc(F)c(Cl)c2)c1O	0.41	.
CCC(C(=O)NC1CCCC1)n1nc(C)c2sc3ccccc3c2c1=O (stereo unspecified)	1.6	-2.2
CSc1ccc(CN2N=NC3C(=O)N(c4ccc(C)cc4)C(=O)C32)cc1 (stereo unspecified)	-0.47	0.17
O=C(COc1ccc(C2=NCCS2)cc1)Nc1ccc(Cl)cc1	.	-1.5
Cc1nc(-c2ccc(F)c(F)c2)cs1	.	-1.2
CCOC(=O)c1cnc2c(S(=O)(=O)C(C)C)csc2c1Sc1cccc(Cl)c1	.	-1.5
COc1ccc2cc(C3OCCO3)c(Cl)nc2c1	.	-0.05
Cc1nnc2c(Nc3ccc(S(=O)(=O)N(C)C)cc3)nc3ccccc3n12	1.4	0.29
Cn1c(=O)c2c(nc(N3CCCC3)n2C)n(C)c1=O	.	-0.72
O=C1c2ccccc2-c2c(NC3CCCCC3)c(=O)[nH]c3cccc1c23	.	-2.3
CCOC(=O)c1cnc2c(ccc3ccccc32)c1NC1CC(C)(C)NC(C)(C)C1	.	0.45
CCOC(=O)c1cnc(SC(CC)C(=O)N2CCc3ccccc32)nc1N (stereo unspecified)	2.4	.
CC1CC(=O)N(C)c2ccccc2S1(=O)=O (stereo unspecified)	.	0.07
O=C(NCCO)c1cc2sc3ccccc3c2s1	.	-0.16
CCCCC(NS(=O)(=O)c1ccc(OC)cc1)C(=O)O (stereo unspecified)	0.17	-1.3
COC(=O)c1[nH]c2ccccc2c1NC(=O)CN(C)C	0.88	-1.3
O=C(CCS(=O)(=O)c1cccc2nsnc12)NC1CC1	2.2	.
CCN(c1ccc(OC)cc1)S(=O)(=O)c1cn(C)cn1	2	.
CSC1=C(C#N)C(c2ccccc2C)CC(=O)N1 (stereo unspecified)	-1.3	-0.39
O=c1cc(CSc2ccc(Cl)cc2)nc2sc(-c3ccco3)nn12	1.6	-2.2
COc1ccc2[nH]c(C(=O)NCCSCc3ccc(F)cc3)cc2c1	.	1.3
CCOc1ccc(-n2c(=S)sc3c(=O)[nH]c(SCC(=O)N4CCC(C)CC4)nc32)cc1	1.4	.
Cc1cccc(-n2ncc3c(NC4CCCC4)ncnc32)c1	-0.27	.

In the list so far, ten contain fluorine:
SMILES	HIV TAR-Tat	CDC25B-CDK2 inh
O=C(NCCc1csc2c1CCCC2)Nc1ccc(Br)cc1F	-0.08	.
CC1=C(C#N)C(c2ccccc2C(F)(F)F)C2=C(CCCC2=O)N1 (stereo unspecified)	.	-0.25
Fc1cc(F)cc(-c2noc3ncnc(NC4CCCCC4)c23)c1	1.1	.
COc1ccc(/C(O)=C2\C(=O)C(=O)N(CCCn3ccnc3)C2c2ccc(F)cc2)cc1 (stereo unspecified)	0.02	-1.4
O=c1cc(CO)oc(C(Nc2ccccn2)c2cccc(F)c2)c1O (stereo unspecified)	.	0.86
COCC(C)NC(=O)NC1(C(F)(F)F)Oc2ccc(Cl)cc2O1 (stereo unspecified)	.	-0.69
CC(=O)Nc1c2n(c3ccc(F)cc13)CC(C)(C(=O)NC1CCC(C)CC1)N(CC1CCCO1)C2=O (stereo unspecified)	1.2	.
Cc1ncc(CO)c(CNc2ccc(F)c(Cl)c2)c1O	0.41	.
Cc1nc(-c2ccc(F)c(F)c2)cs1	.	-1.2
COc1ccc2[nH]c(C(=O)NCCSCc3ccc(F)cc3)cc2c1	.	1.3

Later entries.
SMILES	HIV TAR-Tat	CDC25B-CDK2 inh
CCOC(=O)N1CCc2c(sc3c2c(=O)n(-c2ccc(F)cc2)c(=O)n3CC(N)=O)C1	2.5	-2.4
CCOC(=O)C1=C(C)NC2=C(C(=O)CC(c3ccccc3)C2)C1c1ccc(O)c(OCC)c1 (stereo unspecified)	2.8	-0.86
COc1ccccc1/C=C/c1nc(C#N)c(N2CCOCC2)o1	2.2	-1.5
CCc1nn(C(C)C(=O)NC(C)c2ccc3c(c2)OCCO3)c(=O)c2cc3occc3n12 (stereo unspecified)	0.48	-0.11
O=C(NCc1ccc(F)cc1)NC(c1ccccc1)c1nnc(-c2ccccc2)o1 (stereo unspecified)	1.4	.
COc1ccc(CCN=C(C)c2cc(Cl)cc(Cl)c2O)cc1OC	.	-1.1
O=c1ccc(-c2ccc(S(=O)(=O)N3CCC(N4CCCCC4)CC3)o2)n[nH]1	1.3	.
Cc1ccc(-c2cc(C(F)F)nc(S(C)(=O)=O)n2)cc1	.	-1.4
CCOC(=O)c1sc2ncccc2c1N	-0.51	-2.3
Cc1cc(Cl)ccc1Nc1nc(N2CCN(C)CC2)nc2c1cnn2C	1.2	.
Cc1ccc(Nc2nc(NCc3ccco3)nc3c2cnn3C)cc1C	0.23	.
CC(C)C1CCC(C(=O)N[C@H](Cc2ccccc2)C(=O)O)CC1 (stereo partly specified)	0.66	.
Cc1cc2n(n1)CCCN2CC(=O)N1CCC(N2CCCCC2)CC1	-0.09	.
N/C(Cn1ccc(C(F)(F)F)n1)=N\OS(=O)(=O)c1cccc(Cl)c1Cl	.	-1
Nc1ncnc2c1nc(Br)n2C1OC2COP(=O)(O)O[C@@H]2C1O (stereo partly specified)	.	-1.7
C=C(C)Cn1c(=O)c2c(nc3n2CCN3c2ccc(F)cc2)n(C)c1=O	2.3	.
O=C(c1cccnc1)N1N=C(C2CC2)CC1(O)C(F)(F)F (stereo unspecified)	.	-0.86
CCOC(=O)C1=C(C)Nc2nnnn2C1c1cc(Br)ccc1OC (stereo unspecified)	-0.2	-1.1
COc1ccc2cc3cc(C(=O)N4CCCCC4C)sc3nc2c1Cl (stereo unspecified)	-0.17	.
CC(=O)N1N=C(c2cccnc2)OC1c1ccc(C(C)C)cc1 (stereo unspecified)	3.1	0.99
CCc1nc(-c2csc(S(=O)(=O)NCc3ccc4c(c3)OCO4)c2)no1	1.6	.
Cc1nn(-c2nc3ccccc3[nH]2)c2c1C(c1ccc(C(=O)O)cc1)CC(=O)N2 (stereo unspecified)	25*	.
Cn1c(C(=O)N2CCC(C(N)=O)CC2)cc2c(=O)n3ccccc3nc21	1	.
COc1cccc(-c2noc(C(C)Oc3cccc(C)c3)n2)c1 (stereo unspecified)	-0.8	-1.8
COc1ccc(NC(=O)CN2N=NC3C(=O)N(c4ccc(Cl)cc4)C(=O)C32)cc1Cl (stereo unspecified)	-0.34	.
Later entries
SMILES	HIV TAR-Tat	CDC25B-CDK2 inh
COc1ccc(-c2cnc(NCc3ccc(Cl)cc3)n2C)cc1	-0.41	-2.3
Clc1ccccc1-n1cc(-c2ccccc2)c2c(NCCCN3CCOCC3)ncnc21	0.19	-1.3
COc1ccc(NC(=S)NCCNC(=O)OC(C)(C)C)c(OC)c1	.	-1.5
CC1(C)CC(=O)C(C(C2=C(O)CC(C)(C)CC2=O)c2ccc(O)cc2O)C(=O)C1 (stereo unspecified)	-5.6	-1
CC(C(=O)N1CCc2ccccc21)n1nc(-c2ccccc2)ccc1=O (stereo unspecified)	1.8	-0.89
CCN(CCCN=C1NS(=O)(=O)C(c2ccccc2)=C1C)c1cccc(C)c1	0.53	-0.54
COc1ccc(C2C(=O)N(C3CCCCC3)CC(=O)N2Cc2ccc3c(c2)OCO3)cc1 (stereo unspecified)	.	-0.06
CCCCCC(C)N (stereo unspecified)	0.92	.
Cc1ccc(-c2noc3c(Cl)nc(C)nc23)cc1	-0.61	-2
Cc1ccc(-c2nc3sc(CCNS(=O)(=O)c4cc(F)ccc4F)c(C)n3n2)cc1	0.31	.
C#CC(C)OC(=O)Nc1cnccc1C(F)(F)F (stereo unspecified)	.	-1.1
CCOc1cc(S(=O)(=O)n2cc(C)nc2CC)ccc1Cl	-1.7	-0.26
COc1ccc(-n2c(N)c(Br)c(=O)[nH]c2=O)cc1	0.39	-2
CCc1cccc(NS(=O)(=O)c2cc(-c3noc(C)n3)cs2)c1	0.74	.
CCn1c(=O)[nH]c2cc(-c3noc(COc4ccc(OC)cc4)n3)ccc21	0.91	.
Cc1cccc(OCc2nc(-c3ccc4c(c3)[nH]c(=O)n4C3CCCC3)no2)c1	0.44	.
